Assay outcomes (PubChem BioAssay)
Beta apoptosis: inhibitors of cytokine-induced beta cell apoptosis, primary screen, luminescence. INS-1E cytokine-induced death, ATP luminescence, 48 h; percent of positive-control rescue, neutral wells zero. 300,000 tested, 0.8% active. protection from apoptosis, % (concentration not given with the values);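 active means all replicates at 75% or more, or half of them and the mean; inconclusive means half reach 75% but not the mean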;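 further: 0% = cytokine-treated negative control wells and 100% = positive control rescue; higher means more ATP so stronger rescue from cytokine killing; wells of about 40 µL received 100 nL stock; the first replicate is given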
A1 inh: caspase 3/7 activation in MEF A1-2A-BIM cells, primary screen, A1 inhibitor project, cell-based, luminescence, HTS | Caspase-Glo 3/7 luminescence, 3 h; percent of clofoctol response, vehicle zero | caspase activation, % (concentration not given with the values) | AID 2462, 2010 | 330,000 tested, 0.066% active;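 active means over half of replicate activation scores above 10%, or exactly half above 10 with the replicate mean above 10; inconclusive means replicate mean below 10 yet half the replicates above 10; inactive means over half of replicates below 10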;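 further: wells of about 30 µL received 50 nL stock; many hits fall short of the cut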
Beta2AR agonist: beta2AR agonists driving receptor internalization, primary screen, cell-based, FAP fluorogen, flow cytometry; Beta-2 adrenergic receptor (Homo sapiens), P07550; Am2.2-beta2AR cells; reference of the scale not given here; response, % (no concentration beside the values); 340,000 tested, 0.43% active; AID 504454, 2011;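 active means response above a set limit, near 3 SD of response in nonfluorescent compounds, cut at about 42% in these data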;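 further: stock transfer was 100 nL into about 11 µL; a reference agonist was the positive control; negative values mostly stem from fluorescent compounds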
Calb FLC: C. albicans growth inhibition with fluconazole, primary screen, CaCi-2 strain, Alamar Blue fluorescence. C. albicans CaCi-2 (fluconazole-resistant clinical isolate) + fluconazole, 48 h. growth inhibition, % (no concentration beside the values). 300,000 tested, 0.57% active;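 active means most replicates above 75%; inconclusive means exactly half above 75%; inactive means most below 75%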;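 further: all wells also contain fluconazole at 8 µg/ml as a sub-toxic cotreatment; 0% = median of DMSO wells and 100% = median of geldanamycin control wells; wells of about 8 µL received 7.5 nL stock; the first replicate is given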
RanGTP-Impb inh: inhibitors of RanGTP-importin-beta interaction, primary screen, biochemical, FRET, CFP-Ran, YFP-importin-beta, homogeneous; Ran GTPase (GTP-bound) - importin-beta complex; cell-free CFP-Ran/YFP-importin-beta FRET ratio; inhibition, % (concentration not given with the values); 300,000 tested, 1.1% active; AID 2216, 2009;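 active means most replicates above 15%; inconclusive means exactly half above 15%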;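 further: 0% = DMSO wells and 100% = Ran loaded with GDP instead of GTP; wells of about 40 µL received 100 nL stock; the first replicate is given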
LANA-H2B inh: blockers of LANA interaction with H2A/H2B – biochemical, FP readout, HTS, primary screen. Protein LANA1 (Human herpesvirus 8 type P (isolate GK18)), Q9QR71. cell-free LANA-H2A/H2B peptide, fluorescence polarization. inhibition, % (no concentration beside the values). 320,000 tested, 0.6% active. AID 2629, 2010; in the data active means inhibition mostly above about 10%, no sharp cut-off; inactive means mostly below about 6.7%;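 further: stock transfer was 7.5 nL into about 10 µL; 0% = median of vehicle wells and 100% = median of positive control wells; one replicate is shown; the record names a cut of 25% in any replicate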
Target sequence (Q9QR71 whole entry, looked up): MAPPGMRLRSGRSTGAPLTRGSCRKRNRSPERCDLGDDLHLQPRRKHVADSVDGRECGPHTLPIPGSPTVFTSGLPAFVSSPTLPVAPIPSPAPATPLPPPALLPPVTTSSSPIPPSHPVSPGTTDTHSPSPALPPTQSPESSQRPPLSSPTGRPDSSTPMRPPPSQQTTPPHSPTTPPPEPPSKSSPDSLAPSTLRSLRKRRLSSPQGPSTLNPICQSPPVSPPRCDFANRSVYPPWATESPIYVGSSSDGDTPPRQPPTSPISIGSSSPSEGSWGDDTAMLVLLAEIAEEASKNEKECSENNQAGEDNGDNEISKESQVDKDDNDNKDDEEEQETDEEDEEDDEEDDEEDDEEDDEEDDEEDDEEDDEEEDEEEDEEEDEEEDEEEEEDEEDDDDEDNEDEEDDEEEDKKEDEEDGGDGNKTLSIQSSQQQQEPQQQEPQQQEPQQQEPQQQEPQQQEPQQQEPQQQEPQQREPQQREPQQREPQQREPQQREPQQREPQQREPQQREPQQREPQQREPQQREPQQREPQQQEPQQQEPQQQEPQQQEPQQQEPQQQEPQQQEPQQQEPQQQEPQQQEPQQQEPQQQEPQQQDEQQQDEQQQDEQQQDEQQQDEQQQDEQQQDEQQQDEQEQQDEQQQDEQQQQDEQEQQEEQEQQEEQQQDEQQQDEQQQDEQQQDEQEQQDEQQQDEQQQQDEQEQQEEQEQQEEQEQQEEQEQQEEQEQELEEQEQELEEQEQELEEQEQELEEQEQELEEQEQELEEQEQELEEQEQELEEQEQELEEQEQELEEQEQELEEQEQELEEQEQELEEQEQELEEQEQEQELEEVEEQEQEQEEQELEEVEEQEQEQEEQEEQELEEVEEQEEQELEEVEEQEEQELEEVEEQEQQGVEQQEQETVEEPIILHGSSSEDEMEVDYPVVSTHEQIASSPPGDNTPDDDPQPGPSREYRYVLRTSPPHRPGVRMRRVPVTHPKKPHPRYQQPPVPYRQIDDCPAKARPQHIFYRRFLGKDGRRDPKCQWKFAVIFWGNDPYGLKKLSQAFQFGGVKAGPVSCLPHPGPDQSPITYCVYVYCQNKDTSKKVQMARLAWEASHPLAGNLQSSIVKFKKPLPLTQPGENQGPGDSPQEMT
UCH37 DUB inh: inhibitors of human UCH37 deubiquitinase, primary screen, biochemical, Ub-AMC cleavage, fluorescence. 330,000 tested, 0.33% active. inhibition, % (no concentration beside the values). purified proteasome/UCH37;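 active means mean of two replicates above 20%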;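 further: 0% = compound-free wells with enzyme and 100% = wells lacking proteasome; stock transfer was 100 nL into about 20 µL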
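Material: human UCH37 enzyme supplied as purified proteasome complex. Measure: % inhibition of Ub-AMC cleavage fluorescence. Medium: pH 7.4 Tris-HCl (50 mM) with ovalbumin, ATP-MgCl2, DTT. Times: 30 min preincubation with enzyme, 25 min cleavage at room temperature. Detection: AMC fluorescence intensity at 355/460 nm.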
T cruzi inh: inhibitors of intracellular T. cruzi growth, primary screen, luminescence, NIH3T3 host cells; T. cruzi beta-gal in NIH3T3, 90 h; inhibition, % (test concentration not listed); 300,000 tested, 1.4% active; AID 1885, 2009;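 active means mean inhibition across valid replicates above about 55%, limit read from the data; inconclusive means mean below that limit but half or more replicates reach it; inactive means mean below it, under half of replicates reach it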;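 further: signal also drops with host cell toxicity which is not excluded here; 0% = plate median of DMSO wells and 100% = zero luminescence signal; higher percent means less beta-gal luminescence so fewer parasites; stock transfer was 50 nL into about 50 µL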
Numbers without * were called inactive; u = inconclusive; x = no result given.

cpd	Structure	Beta apoptosis	A1 inh	Beta2AR agonist	Calb FLC
1	Cc1ccc(C)c(C(=O)OCC(=O)N(C)c2ccccc2)c1	x	-0.1	-1	8
2	CCCCOCCCNCC(=O)Nc1ccc(S(N)(=O)=O)cc1	0	-0.1	5	-14
3	CN(C(=O)c1ccc(NC(=O)Cc2cccc(NC(=O)C3CCCN(C(=O)C4CC4)C3)c2)cc1)C1CCCC1 (stereo not given)	-2	-1.5	-9	x
4	Cc1cccc(-n2nnnc2-c2cnccc2C(F)(F)F)c1C	-4	0.8	-4	4
5	O=C(CN1C(=O)NC2(CCCCCC2)C1=O)Nc1ccc([N+](=O)[O-])cc1	1	1.4	5	x
6	NNC(=O)c1oc2nc(-c3ccccc3)cc(-c3ccco3)c2c1N	12	-1.2	-17	2
7	CCN1CCN(C(=S)Nc2cccc([N+](=O)[O-])c2)CC1	-10	1.7	-4	-15
8	COc1ccccc1/C=C1\SC(N2CCC(C)CC2)=NC1=O	24	0.2	-4	-9

cpd	RanGTP-Impb inh	LANA-H2B inh	UCH37 DUB inh	T cruzi inh
1	-1.2	-0.2	4.3	4
2	-1.3	7.2	1.2	-6
3	x	-3.4	-0.7	x
4	3.3	3.1	4.3	-2
5	x	2.8	4.2	x
6	-4.9	-0.8	3.9	16
7	-2.1	4.2	-0.4	0
8	-3.8	-4.9	1.6	27

Continued, overlapping the part above by six compounds.
cpd	Structure	Beta apoptosis	A1 inh	Beta2AR agonist	Calb FLC
3	CN(C(=O)c1ccc(NC(=O)Cc2cccc(NC(=O)C3CCCN(C(=O)C4CC4)C3)c2)cc1)C1CCCC1 (stereo not given)	-2	-1.5	-9	x
4	Cc1cccc(-n2nnnc2-c2cnccc2C(F)(F)F)c1C	-4	0.8	-4	4
5	O=C(CN1C(=O)NC2(CCCCCC2)C1=O)Nc1ccc([N+](=O)[O-])cc1	1	1.4	5	x
6	NNC(=O)c1oc2nc(-c3ccccc3)cc(-c3ccco3)c2c1N	12	-1.2	-17	2
7	CCN1CCN(C(=S)Nc2cccc([N+](=O)[O-])c2)CC1	-10	1.7	-4	-15
8	COc1ccccc1/C=C1\SC(N2CCC(C)CC2)=NC1=O	24	0.2	-4	-9
9	Cn1c(N)c(C(=O)c2ccccc2)c(=O)n(C)c1=O	-1	1.2	2	5
10	O=C(CC(Nc1ccccc1)C(=O)O)c1ccccc1 (stereo not given)	0	-0.1	-1	3
11	Cc1ccc(C)c(OCCC(=O)OCC(=O)N(C)c2c(N)n(Cc3ccccc3)c(=O)[nH]c2=O)c1	-7	-1.0	1	5
12	Cc1ccsc1/C=N/NC(=O)c1ccc([N+](=O)[O-])cc1	24	-1.6	2	-16
13	CN1CCN(NC(=O)Nc2ccc(Br)cc2)CC1	-8	-0.3	1	-3
14	CCOC(=O)c1sc(NC(=O)Nc2ccccc2Cl)cc1C	42	-6.7	12	44
15	O=C1c2ccccc2NC(c2cn[nH]c2-c2ccc(Cl)cc2)N1O (stereo not given)	-6	-0.5	-10	91*
16	C=CCOc1ccc(/C=C(\C#N)C(=O)Nc2ccccn2)cc1	-3	1.4	5	-2

cpd	RanGTP-Impb inh	LANA-H2B inh	UCH37 DUB inh	T cruzi inh
3	x	-3.4	-0.7	x
4	3.3	3.1	4.3	-2
5	x	2.8	4.2	x
6	-4.9	-0.8	3.9	16
7	-2.1	4.2	-0.4	0
8	-3.8	-4.9	1.6	27
9	3.7	1.5	-2.8	x
10	-1.8	-1.2	-1.7	45
11	2.5	1.0	1.5	-4
12	9.4	0.3	x	-10
13	-1.8	-4.2	0.9	38
14	0.2	1.8	1.9	65*
15	1.2	1.1	x	-14
16	17*	5.4	-48	-15

cpd	Structure	Beta apoptosis	A1 inh	Beta2AR agonist	Calb FLC
17	COc1cc(/C=N/NC(=O)CC#N)ccc1Oc1nc(Cl)ncc1F	-2	-1.5	2	0
18	Cc1ccc(/C=C(\C#N)C(=O)Nc2cccc3ncccc23)o1	3	-0.6	4	-6
19	COCCNC(=O)CSc1cc(=O)n(C)c2cc(Cl)ccc12	2	-0.6	-33	21
20	O=C(COc1ccc2ccccc2c1)NN1C(=O)c2ccccc2C1=O	-8	1.1	-13	-11
21	COc1cc2c(cc1OC)C(c1cccc([N+](=O)[O-])c1)=NCC2	-5	0.9	1	31
22	COc1ccc(NC(=O)CC(C(=O)O)C(C)c2ccccc2)cc1 (stereo not given)	-6	0.5	-8	-51
23	COc1cccc(C2CC(C(F)(F)F)n3ncc(C(=O)NCC4CCCO4)c3N2)c1 (stereo not given)	-1	2.6	-3	-9
24	C=CCn1c(=NC(=O)C2COc3ccccc3O2)sc2cccc(OC)c21 (stereo not given)	8	0.0	-11	9

cpd	RanGTP-Impb inh	LANA-H2B inh	UCH37 DUB inh	T cruzi inh
17	-1.5	3.7	x	-10
18	24*	1.4	10	-9
19	-1.3	-3.5	0.9	-12
20	3.3	-0.4	0.2	-16
21	-12	-1.1	6.7	-6
22	1.8	5.6	2.3	7
23	-4.5	-1.3	2.3	2
24	1.5	3.0	2.5	32

cpd	Structure	Beta apoptosis	A1 inh	Beta2AR agonist	Calb FLC
25	Cc1c(N=C2NC(=O)C(CC(=O)Nc3ccc(Cl)cc3)S2)c(=O)n(-c2ccccc2)n1C (stereo not given)	1	0.4	-5	28
26	Cn1/c(=N/NC(=O)c2ccccc2F)sc2ccccc21	-5	-0.1	1	-5
27	O=C(N/N=C\c1ccccc1F)c1ccc(-c2ccccc2)cc1	3	1.1	1	-7
28	COc1ccc(C(=O)c2c(O)cc(-c3ccc(OC)cc3)oc2=O)cc1	-2	0.1	3	-6
29	CCOC(=O)Cc1csc(NS(=O)(=O)c2ccc(C(F)(F)F)cc2)n1	-3	-0.1	8	0
30	COc1ccccc1-n1c(SCC(=O)N2CCCCC2)nc2cccnc21	-2	-0.8	1	x
31	CCCCC(=O)Nc1ccc(NC(=S)NC(=O)CCCCl)cc1OC	-5	0.6	-7	-7
32	COc1ccc([C@@H]2CC(=O)c3c(O)cc(O)cc3O2)cc1O	1	-2.5	2	x

cpd	RanGTP-Impb inh	LANA-H2B inh	UCH37 DUB inh	T cruzi inh
25	4.0	-0.2	1.2	-14
26	-2.2	7.2	x	-9
27	x	-12	x	x
28	2.1	4.2	11	-2
29	5.6	-1.1	6.0	-9
30	1.6	-2.3	4.8	5
31	0.7	0.0	5.2	-7
32	x	-1.2	3.8	x

cpd	Structure	Beta apoptosis	A1 inh	Beta2AR agonist	Calb FLC
33	Cc1cccc(N2C(=O)Cc3ccccc3C2=O)c1	-4	1.0	13	-18
34	CCCNC(=O)[C@H](Cc1c[nH]c2ccccc12)NC(=O)c1ccccc1Cl	1	0.3	3	3
35	CCOC(=O)CN1C(=O)C(=O)c2cccc(C)c21	-21	0.3	1	-19
36	Cc1ccc(-c2nnc(SCC(=O)N3CCN(c4ccccc4)CC3)o2)cc1	-4	0.8	3	-5
37	CCN(CC)CCN(Cc1cc2cc3c(cc2[nH]c1=O)OCO3)C(=S)NCCOC	-3	1.4	15	-12
38	CN(C)c1ccc(/C=C2\CCCCC2=O)cc1	6	-4.7	17	-39
39	Cc1c(N=Cc2nc3ccccc3n2C)c(=O)n(-c2ccccc2)n1C	-3	-2.1	-35	3
40	COc1ccc(OC)c(CC(NC(C)=O)C(=O)NC2CCN(c3c(Cc4ccccc4)c(C)nc4ncnn34)CC2)c1 (stereo not given)	3	-0.7	-7	-2

cpd	RanGTP-Impb inh	LANA-H2B inh	UCH37 DUB inh	T cruzi inh
33	-5.3	6.4	2.4	-8
34	1.0	-0.3	1.0	-1
35	-0.1	1.2	4.7	-18
36	-3.7	1.1	1.3	-2
37	-41	2.0	-211	-10
38	-4.6	-1.2	9.5	-3
39	3.8	11	14	-9
40	0.0	-1.9	2.1	8

Nothing new here: entries from further up.
cpd	Structure	Beta apoptosis	A1 inh	Beta2AR agonist	Calb FLC
39	Cc1c(N=Cc2nc3ccccc3n2C)c(=O)n(-c2ccccc2)n1C	-3	-2.1	-35	3
40	COc1ccc(OC)c(CC(NC(C)=O)C(=O)NC2CCN(c3c(Cc4ccccc4)c(C)nc4ncnn34)CC2)c1 (stereo not given)	3	-0.7	-7	-2

cpd	RanGTP-Impb inh	LANA-H2B inh	UCH37 DUB inh	T cruzi inh
39	3.8	11	14	-9
40	0.0	-1.9	2.1	8

Additional records follow:
cpd	Structure	Beta apoptosis	A1 inh	Beta2AR agonist	Calb FLC
41	COc1ccccc1NC(=O)c1ccc(NC(=O)CSc2nncn2C)cc1	-2	1.2	-6	8
42	CCN(CC)c1ccc(/C=N/Nc2nc(C)cc(C)n2)c(O)c1	82*	-0.2	27	-26
43	CP(=O)(Nc1cc(Cl)ccc1Cl)c1nc2c(s1)CCCC2 (stereo not given)	8	-0.2	1	-5
44	COc1ccc(CNC(=O)C2C3C=CC4(CN(Cc5cccnc5)C(=O)C24)O3)cc1 (stereo not given)	-4	-0.1	3	3
45	O=C(N/N=C/c1ccc[nH]1)c1ccc2c(c1)OCO2	2	-0.2	3	7
46	COc1ccccc1C(=O)NCC(=O)N1CCN(S(=O)(=O)c2ccc3c(c2)OCCO3)CC1	-13	0.1	-4	-4
47	COc1ccc(S(=O)(=O)N2CCC(C(=O)NCCC(=O)NC3CC3)CC2)cc1	-4	-0.1	5	2
48	CC(C(=O)Nc1ccc2[nH]c(=O)[nH]c2c1)N1CCN(Cc2ccc3c(c2)OCO3)CC1 (stereo not given)	2	1.3	-2	x

cpd	RanGTP-Impb inh	LANA-H2B inh	UCH37 DUB inh	T cruzi inh
41	-11	-2.5	-1.0	-16
42	7.0	x	x	-16
43	u	0.9	3.6	10
44	-0.4	-0.6	4.2	-3
45	-2.7	-0.7	x	-9
46	-0.5	2.6	0.6	10
47	5.4	-0.9	-2.6	0
48	x	2.8	0.7	x
